Screening results as filed in PubChem BioAssay.
Vaccinia inh: blocks a specific stage of Vaccinia orthopoxvirus infection, primary screen, cell-based, single point; Vaccinia-infected cells, mCherry/Venus stage reporter fluorescence; stronger effect = lower value; some inactives read as strong as hits; activity change (mCherry), % (test concentration not listed); hit rate 0.01% among 89,000; AID 1053133, 2014;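 active = mCherry past -33% and 40 or more points under the early reporter, replicates agreeing; inconclusive = past -33% without that gap or agreement; tested in A549 cells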;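 note: scaled between vehicle wells and reference inhibitor wells; 23 nL library stock went into each well; one replicate is shown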
Vaccinia inh Venus: also measured in Vaccinia inh; calls as there; activity change (Venus), %; measured here: Venus reporter, other viral stage;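 negative = less Venus signal; first of two replicates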
* marks the source's active call; other numbers are inactive results; u = inconclusive; x = no result given.

SMILES	Vaccinia inh	Vaccinia inh Venus
CC(C)NC(=O)N1CCCCN2[C@@H](CO)[C@@H](c3ccc(C#Cc4ccccc4F)cc3)[C@@H]2C1	u	x
C[C@@H]1CN([C@@H](C)CO)C(=O)Cc2cc(NC(=O)Cn3cnnn3)ccc2O[C@H]1CN(C)C(=O)Nc1ccccc1	15	23
O=C(C[C@H]1C[C@@H]2c3cc(NC(=O)CC4CC4)ccc3O[C@@H]2[C@H](CO)O1)NCc1ccccc1F	15	17
C[C@H]1CCCCO[C@H](CN(C)C(=O)Cc2ccccc2)[C@@H](C)CN([C@@H](C)CO)C(=O)c2cc(NC(=O)Nc3ccc4c(c3)OCO4)ccc2O1	-16	-18
O=C(C[C@H]1CC[C@H](NC(=O)CN2CCOCC2)[C@@H](CO)O1)NC1CCCCC1	0	-5
CO[C@H]1CN(C)C(=O)c2ccc(NC(=O)NC(C)C)cc2OC[C@@H](C)N(C(=O)NC(C)C)C[C@@H]1C	15	5
Cc1noc(C)c1NC(=O)Nc1ccc2c(c1)C(=O)N([C@@H](C)CO)C[C@@H](C)[C@@H](CN(C)C(=O)C1CCCCC1)OCCCC[C@@H](C)O2	3	6
CCCNC(=O)N1CC2(CCN(C(=O)C3CCOCC3)CC2)c2c([nH]c3cc(OC)ccc23)[C@@H]1CO	-5	-7
COc1ccc(S(=O)(=O)Nc2ccc3c(c2)C(=O)N([C@@H](C)CO)C[C@@H](C)[C@H](CN(C)CC2CCCCC2)O3)cc1	-8	-11
CO[C@H]1CN(C)C(=O)c2cc(NC(=O)CC(F)(F)F)ccc2OC[C@@H](C)N(C(=O)C2CCOCC2)C[C@@H]1C	9	21
COc1ccc(NC(=O)N[C@@H]2C=C[C@@H](CC(=O)NCc3ccccn3)O[C@H]2CO)cc1	5	12
C[C@@H]1CN([C@H](C)CO)C(=O)c2cc(/C=C/c3ccccc3)cnc2O[C@@H]1CN(C)C(=O)CN1CCOCC1	2	6
COCC(=O)Nc1ccc2c(c1)OC[C@H](C)N(CC1CCCCC1)C[C@@H](C)[C@@H](OC)CN(C)C2=O	-14	-9
CN1c2ccc(Br)cc2[C@H]2[C@H](CCN2S(=O)(=O)c2ccccc2F)[C@@H]1CO	u	x
Cc1cc(C(=O)Nc2ccc3c(c2)C(=O)N(C)[C@@H]2CC[C@@H](CC(=O)NCc4ccc(-c5ccccc5)cc4)O[C@@H]2CO3)no1	-12	-1
COc1ccc(S(=O)(=O)Nc2ccc3c(c2)CC(=O)N([C@@H](C)CO)C[C@H](C)[C@H](CN(C)S(=O)(=O)c2cn(C)cn2)O3)cc1	10	0
CC=Cc1ccc2n(c1=O)C[C@@H]1[C@@H](CO)[C@H](C(=O)N3CCCCC3)N(Cc3ccccc3)[C@H]21 (mixture of isomers)	u	x
C[C@@H]1CN([C@H](C)CO)C(=O)CCCn2cc(nn2)CO[C@H]1CN(C)S(=O)(=O)c1ccc2c(c1)OCCCO2	9	5
CC(=O)n1cc([C@@H]2C=C(C(=O)N3CCOCC3)O[C@H](OCCCCO)C2)c2ccccc21	7	9
C[C@H](CO)N1C[C@H](C)[C@H](CN(C)S(=O)(=O)c2ccccc2)Oc2cc(-c3cccc(F)c3)ccc2S1(=O)=O	-33	-29
O=C(c1ccccc1F)N1CC(=O)N2[C@H](CO)[C@@H](c3ccc(-c4ccc(F)cc4)cc3)[C@H]2C1	-30	-51
C[C@@H]1CN([C@H](C)CO)C(=O)Cc2cc(NS(C)(=O)=O)ccc2O[C@@H]1CN(C)C(=O)Nc1ccc(F)cc1	20	8
O=C(NCC[C@@H]1CC[C@H](NS(=O)(=O)c2ccc(F)cc2)[C@H](CO)O1)Nc1ccc(Cl)cc1	-31	-24
CCCNC(=O)N1C[C@@H](O)COC[C@@H]2O[C@H](CC(=O)OC)CC[C@H]21	-1	0
C[C@@H]1CN([C@H](C)CO)C(=O)c2cc(NS(C)(=O)=O)ccc2O[C@@H](C)CCCCO[C@@H]1CN(C)Cc1ccncc1	4	6
CC(C)NC(=O)N(C)C[C@@H]1Oc2ncc(C#CC3(O)CCCC3)cc2C(=O)N([C@H](C)CO)C[C@@H]1C	32	5
CN1C(=O)c2cc(NC(=O)C3CCCCC3)ccc2OC[C@H]2O[C@H](CC(=O)NC3CCCC3)CC[C@H]21	3	5
NCC[C@@H]1CC[C@@H](NC(=O)Cc2ccncc2)[C@H](CO)O1	9	8
Cc1ccc(S(=O)(=O)Nc2ccc3c(c2)C(=O)N([C@H](C)CO)C[C@@H](C)[C@H](CN(C)S(=O)(=O)c2ccc(F)cc2)OCCCC[C@H](C)O3)cc1	u	x
COCC#Cc1cnc2c(c1)C(=O)N([C@H](C)CO)C[C@H](C)[C@H](CN(C)C(=O)Cc1ccccc1)O2	54	23
CN(C)CCCNC(=O)[C@@H]1[C@@H](CO)[C@@H]2Cn3c(ccc(-c4cccc(F)c4)c3=O)[C@@H]2N1C	0	4
O=C(C[C@H]1CC[C@H](NC(=O)Nc2ccccc2F)[C@H](CO)O1)NCc1ccc(-c2ccccc2)cc1	-15	-14
C[C@H](CO)N1C[C@H](C)[C@@H](CN(C)S(=O)(=O)c2ccccc2F)Oc2ncc(Br)cc2C1=O	8	6
C[C@@H]1CCCCO[C@H](CN(C)C(=O)CCCN(C)C)[C@@H](C)CN([C@H](C)CO)C(=O)c2cc(NC(=O)CCCN(C)C)ccc2O1	7	4
Cc1noc(C)c1NC(=O)N[C@H]1C=C[C@@H](CC(=O)N2CCN(C)CC2)O[C@H]1CO	5	-3
CCC(=O)Nc1ccc2c(c1)C(=O)N(C)[C@@H]1CC[C@@H](CC(=O)NCc3ccccc3)O[C@H]1CO2	9	11
COc1ccccc1NC(=O)N1CC[C@H]2[C@@H]1c1cc(-c3ccc(F)cc3)ccc1N(C)[C@H]2CO	-6	-6
CC=Cc1ccc2n(c1=O)C[C@@H]1[C@@H](CO)[C@H](C(=O)NCCC)N(C(=O)CC)[C@H]21 (mixture of isomers)	4	-2
C[C@@H]1CCCCO[C@@H](CN(C)S(C)(=O)=O)[C@H](C)CN([C@H](C)CO)C(=O)c2cc(NS(=O)(=O)c3cn(C)cn3)ccc2O1	12	13
CN1CCN(C(=O)C[C@H]2CC[C@H](NC(=O)Nc3ccccc3F)[C@@H](CO)O2)CC1	2	12
O=C(C[C@@H]1C=C[C@H](NC(=O)c2ccncc2)[C@@H](CO)O1)NCCc1ccncc1	10	2
O=C(Nc1ccccc1)N[C@H]1CC[C@H](CCNS(=O)(=O)c2ccccc2F)O[C@H]1CO	-13	-10
Cc1ccc(S(=O)(=O)Nc2ccc3c(c2)C(=O)N(C)[C@H]2CC[C@@H](CC(=O)O)O[C@H]2CO3)cc1	7	8
COCC(=O)N1CCCCN2[C@H](CO)[C@H](c3ccc(C#Cc4ccc(OC)cc4)cc3)[C@@H]2C1	-8	-18
C[C@H](CO)N1C[C@H](C)[C@@H](CN(C)CC2CC2)Oc2c(NC(=O)Nc3ccc4c(c3)OCO4)cccc2C1=O	-6	-2
C[C@H]1CN([C@@H](C)CO)S(=O)(=O)c2ccc(C#CCN(C)C)cc2O[C@H]1CN(C)Cc1ccc2c(c1)OCO2	-1	-4
CCCC(=O)Nc1ccc2c(c1)C(=O)N(C)[C@H]1CC[C@@H](CC(=O)NCc3cccc(F)c3)O[C@@H]1CO2	2	2
C[C@H]1CN([C@@H](C)CO)C(=O)Cc2cc(NC(=O)NC3CCCCC3)ccc2O[C@@H]1CN(C)Cc1ccccc1	-1	6
COc1ccc(S(=O)(=O)Nc2cccc3c2O[C@@H](CN(C)Cc2ccc(C(=O)Nc4ccccc4N)cc2)[C@H](C)CN([C@H](C)CO)C3=O)cc1	22	2
CCCC#Cc1cnc2c(c1)C(=O)N([C@H](C)CO)C[C@H](C)[C@@H](CN(C)C(=O)c1ccc(F)cc1)O2	9	2
C[C@H](NC(=O)C[C@@H]1C[C@@H]2c3cc(NC(=O)Nc4ccc(C(F)(F)F)cc4)ccc3O[C@@H]2[C@H](CO)O1)c1ccccc1	7	3
CO[C@H]1CN(C)C(=O)c2ccc(NC(=O)Nc3ccccc3)cc2OC[C@@H](C)NC[C@H]1C	1	0
COc1ccc2c3c(n(C)c2c1)[C@H](CO)N(C(C)=O)CC31CN(Cc2nccs2)C1	12	8
C[C@@H]1CN([C@H](C)CO)C(=O)Cc2cc(NC(=O)C3CC3)ccc2O[C@@H]1CN(C)S(=O)(=O)c1cccs1	16	13
CCC(=O)N1CCCCN2[C@@H](CO)[C@@H](c3ccc(C#Cc4cccnc4)cc3)[C@@H]2C1	20	0
CC(=O)N[C@H]1CC[C@@H](CC(=O)NCC2CCCCC2)O[C@H]1CO	4	5
CO[C@H]1CN(C)C(=O)c2ccc(NC(=O)c3cc(C)on3)cc2OC[C@@H](C)NC[C@@H]1C	3	5
COc1ccc(S(=O)(=O)N(C)C[C@@H]2Oc3ccc(NS(=O)(=O)c4cn(C)cn4)cc3CC(=O)N([C@@H](C)CO)C[C@@H]2C)cc1	5	-3
C[C@@H]1CN([C@H](C)CO)C(=O)c2cccc(NC(=O)Nc3ccccc3)c2O[C@@H]1CN(C)CC1CCCCC1	-14	-1
CC(C)NC(=O)N[C@H]1CC[C@@H](CCNC(=O)C2CC2)O[C@@H]1CO	15	9

Further structures.
SMILES	Vaccinia inh	Vaccinia inh Venus
Cc1ccc(S(=O)(=O)Nc2cccc3c2O[C@H](CN(C)C(=O)Nc2c(C)noc2C)[C@H](C)CN([C@H](C)CO)C3=O)cc1	14	13
O=C(C[C@@H]1C[C@H]2c3cc(NC(=O)C4CCOCC4)ccc3O[C@H]2[C@H](CO)O1)NCCN1CCCCC1	14	11
COc1ccc(NC(=O)N(C)C[C@@H]2Oc3c(NC(=O)CCCCCC(=O)Nc4ccccc4N)cccc3C(=O)N([C@@H](C)CO)C[C@@H]2C)cc1	4	6
COc1ccc(NC(=O)N2CC(=O)N3[C@H](C2)[C@@H](c2ccc(C4=CCCC4)cc2)[C@@H]3CO)cc1	-18	-18
Cc1noc(C)c1NC(=O)N[C@@H]1CC[C@@H](CC(=O)N2CCCCC2)O[C@H]1CO	13	6
O=C(Nc1cccc(F)c1)N1C[C@H]2[C@@H](c3ccccc31)[C@@H](CO)N2C(=O)C1CCOCC1	14	19
C[C@H](CO)N1C[C@H](C)[C@H](CN(C)Cc2ccc(Oc3ccccc3)cc2)Oc2ccc(NC(=O)c3ccncc3)cc2CC1=O	-2	5
C[C@@H]1CN([C@H](C)CO)C(=O)c2cccc(NS(=O)(=O)c3cccs3)c2O[C@H]1CN(C)C(=O)Nc1ccc(F)cc1	20	7
C[C@@H]1CN([C@@H](C)CO)C(=O)Cc2cc(NS(=O)(=O)c3ccc(Cl)cc3)ccc2O[C@@H]1CN(C)Cc1ccc(Cl)c(Cl)c1	u	x
OC[C@H]1[C@@H](c2ccc(-c3cncnc3)cc2)[C@@H]2CN(CC3CCOCC3)CCCCN12	37	2
COCC(=O)N(C)C[C@@H]1Oc2cc(-c3ccc(C#N)cc3)ccc2S(=O)(=O)N([C@@H](C)CO)C[C@@H]1C	5	10
O=C(C[C@@H]1C[C@@H]2c3cc(NC(=O)c4ccc5c(c4)OCO5)ccc3O[C@@H]2[C@@H](CO)O1)NCCN1CCCCC1	11	19
C[C@@H]1CN([C@@H](C)CO)C(=O)c2cc(-c3cccc(C(=O)N(C)C)c3)cnc2O[C@H]1CN(C)S(=O)(=O)c1ccccc1	15	10
O=C(Nc1cccc(F)c1)N[C@H]1CC[C@H](CCNS(=O)(=O)c2cccc(Cl)c2)O[C@H]1CO	-24	-7
C[C@H](O)C#Cc1ccc2c(c1)O[C@@H](CN(C)C(=O)Nc1ccccc1)[C@H](C)CN([C@H](C)CO)S2(=O)=O	8	10
C[C@@H]1CN([C@@H](C)CO)C(=O)c2cccc(NS(C)(=O)=O)c2O[C@@H]1CN(C)Cc1ccc(C(=O)Nc2ccccc2N)cc1	3	7

By substructure, the entries above containing an aryl methoxy group
SMILES	Vaccinia inh	Vaccinia inh Venus
CCCNC(=O)N1CC2(CCN(C(=O)C3CCOCC3)CC2)c2c([nH]c3cc(OC)ccc23)[C@@H]1CO	-5	-7
COc1ccc(S(=O)(=O)Nc2ccc3c(c2)C(=O)N([C@@H](C)CO)C[C@@H](C)[C@H](CN(C)CC2CCCCC2)O3)cc1	-8	-11
COc1ccc(NC(=O)N[C@@H]2C=C[C@@H](CC(=O)NCc3ccccn3)O[C@H]2CO)cc1	5	12
COc1ccc(S(=O)(=O)Nc2ccc3c(c2)CC(=O)N([C@@H](C)CO)C[C@H](C)[C@H](CN(C)S(=O)(=O)c2cn(C)cn2)O3)cc1	10	0
COc1ccccc1NC(=O)N1CC[C@H]2[C@@H]1c1cc(-c3ccc(F)cc3)ccc1N(C)[C@H]2CO	-6	-6
COCC(=O)N1CCCCN2[C@H](CO)[C@H](c3ccc(C#Cc4ccc(OC)cc4)cc3)[C@@H]2C1	-8	-18
COc1ccc(S(=O)(=O)Nc2cccc3c2O[C@@H](CN(C)Cc2ccc(C(=O)Nc4ccccc4N)cc2)[C@H](C)CN([C@H](C)CO)C3=O)cc1	22	2
COc1ccc2c3c(n(C)c2c1)[C@H](CO)N(C(C)=O)CC31CN(Cc2nccs2)C1	12	8
COc1ccc(S(=O)(=O)N(C)C[C@@H]2Oc3ccc(NS(=O)(=O)c4cn(C)cn4)cc3CC(=O)N([C@@H](C)CO)C[C@@H]2C)cc1	5	-3
COc1ccc(NC(=O)N(C)C[C@@H]2Oc3c(NC(=O)CCCCCC(=O)Nc4ccccc4N)cccc3C(=O)N([C@@H](C)CO)C[C@@H]2C)cc1	4	6
COc1ccc(NC(=O)N2CC(=O)N3[C@H](C2)[C@@H](c2ccc(C4=CCCC4)cc2)[C@@H]3CO)cc1	-18	-18

Some of the compounds tested (hit frequency here may not be typical).
